# SARS PLP yeast = blocks SARS-CoV papain-like protease in a yeast assay. S. cerevisiae expressing SARS-CoV PLpro, growth rescue; control for the full effect not named in the record. Potency, µM (doses to about 32.9 µM), without a hit: top-dose activity, positive = growth rescue. 0.19% of 330,000 active. AID 485353; also: 0% is about no effect; nearly all actives have a fitted effect of over 55% in size; growth read by luminescence after 48 h
# StopGo reporter = lowers the luciferase signal of an FMDV 2A StopGo reporter | human cells with a luciferase reporter of 2A StopGo recoding; control for the full effect not named in the record | Potency, µM (highest dose often 57.9 µM), for the others: at the highest dose signal change, negative = less light | 1.2% of 410,000 active; active = well fitted falling curve with a large enough effect; inconclusive = small, poorly fitted or top-dose-only effect; inactive = no such curve, though single readings can be large or run the other way; tested in HEK293T cells; also: % is scaled to controls: 0 for no effect and ±100 for the full control effect; nearly all actives have a fitted effect of over 45% in size; luciferase light after 4 h
# Marburg entry inh = Marburg virus entry inhibition | 1.8% of 300,000 active | Marburg virus pseudotyped entry inhibition, cell reporter; control for the full effect not named in the record; about a third of the inactives were read at about 46 µM | Potency, µM (doses to about 37.8 µM), inactives show at the top dose activity change, negative = inhibition, actives largely listed as inhibitors | AID 540276; active = well fitted inhibition curve with a large enough effect; inconclusive = small, poorly fitted or top-dose-only effect, or effect the other way; inactive = flat fitted curve, though single readings scatter; tested in HEK293 cells; about a fifth of its hits are not listed in these tables; also: % is scaled to controls: 0 for no effect and ±100 for the full control effect; luciferase read-out
# Cruzain inh noDet = cruzain (T. cruzi) inhibition without detergent; purified cruzain, Z-FR-AMC fluorescence, no detergent; Potency, µM, inactives show max response, negative = inhibition, usual class: inhibitors; 2.3% of 200,000 active; AID 1476; active = well fitted curve in the direction sought with a large enough effect; inconclusive = small, poorly fitted or top-dose-only effect, or another doubt; inactive = no such curve, though single readings can be large; an effect the other way counts as inactive or inconclusive;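 also: plate controls were enzyme without inhibitor for no effect and buffer without enzyme for full effect; nearly all actives have a fitted effect of over 40% in size; top concentration of the series not given in the record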
# Target sequence (P25779 123-467 limits assumed): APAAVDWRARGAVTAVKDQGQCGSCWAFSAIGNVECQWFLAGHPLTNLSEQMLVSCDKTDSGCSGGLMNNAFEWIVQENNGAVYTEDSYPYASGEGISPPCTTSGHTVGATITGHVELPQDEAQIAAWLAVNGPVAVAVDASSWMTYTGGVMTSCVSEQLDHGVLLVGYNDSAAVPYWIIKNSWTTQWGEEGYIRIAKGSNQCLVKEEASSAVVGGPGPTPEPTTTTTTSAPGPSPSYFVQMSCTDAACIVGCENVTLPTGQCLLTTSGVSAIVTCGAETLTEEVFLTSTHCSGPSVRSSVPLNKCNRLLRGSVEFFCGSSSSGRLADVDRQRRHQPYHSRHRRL
#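 Purified cruzain at 1.5 nM, pre-incubated 15 min with compound at room temperature in 100 mM sodium acetate pH 5.5, 5 mM DTT, 0.00005% Triton X-100. Reaction started with 2 uM Z-FR-AMC; AMC fluorescence increase over 60 s gives rate.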
# RE007 growth inh = less growth of the S. pombe RE007 Vpr strain; Potency, µM (series often up to 92.2 µM), inactives show top-dose activity change, negative = less growth; S. pombe RE007 Vpr strain, BacTiter-Glo ATP luminescence, 24 h; control for the full effect not named in the record; 0.21% of 360,000 active; AID 651644; active = well fitted falling curve with a large enough effect; inconclusive = small, poorly fitted or top-dose-only effect; inactive = no such curve, though single readings can be large or run the other way;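 also: % is scaled to controls: 0 for no effect and ±100 for the full control effect; nearly all actives have a fitted effect of over 50% in size; the assay follows cell death caused by Vpr and the record does not say whether a fall means rescue or toxicity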
#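 Fission yeast strain RE007, carrying one chromosomally integrated HIV-1 vpr copy, was seeded at OD 0.01 in PMG+AL medium with 23 nL pinned compound. After 24 h at 30 °C and 99% humidity, viability was read by BacTiter-Glo luminescence.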
# Lassa entry inh = Lassa virus entry inhibition; Lassa virus pseudotype entry inhibition, cell reporter; control for the full effect not named in the record; Potency, µM (doses to about 37.9 µM), without a hit: at the top dose activity change, negative = inhibition, hits mostly inhibitors; 1.2% of 300,000 active; active means well fitted inhibition curve with a large enough effect; inconclusive means small, poorly fitted or top-dose-only effect, or effect the other way; inactive means flat fitted curve, though single readings scatter; tested in HEK293 cells; also: % is scaled to controls: 0 for no effect and ±100 for the full control effect; nearly all actives have a fitted effect of over 50% in size; luciferase read-out
# Cruzain inh Det = cruzain (T. cruzi) inhibition with detergent. 0.43% of 200,000 active. P25779. Potency, µM, for the others: max response, negative = inhibition, hits mostly inhibitors. AID 1478. purified cruzain, Z-FR-AMC fluorescence, 0.01% Triton; active = well fitted curve in the direction sought with a large enough effect; inconclusive = small, poorly fitted or top-dose-only effect, or another doubt; inactive = no such curve, though single readings can be large; an effect the other way counts as inactive or inconclusive;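 also: plate controls were neutral wells for no effect and buffer without enzyme for full effect; nearly all actives have a fitted effect of over 40% in size; top concentration of the series not given in the record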
#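 Sodium acetate buffer (100 mM, pH 5.5) containing 5 mM DTT and 0.01% Triton X-100 hosted 1.5 nM cruzain and test compound for 15 min at room temperature. Cleavage of 2 uM Z-FR-AMC was then tracked by fluorescence.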
# NS1 inh = influenza NS1 inhibition; S. cerevisiae slowed by influenza A NS1, growth recovery by OD600; Potency, µM (series often up to 46.1 µM), without a hit: at the highest dose activity, positive = more growth; 0.4% of 270,000 active; AID 2326; also: actives are rising curves; nearly all actives have a fitted effect of over 50% in size
#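 Recovery from NS1-induced slow growth read by OD600 in budding yeast switched to galactose assay medium (pH 6.0, -URA) at 1:100 dilution. Compound 23 nl per well; the matching strain lacking NS1 serves as control.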
# * hit, by the source's call; ? = inconclusive; / = no result given; & = joins results of further samples; [ ] = dose if it differs, or a comment. Unless noted, calls follow the shape of the dose curve; as a rule, active means well fitted rising curve with a large enough effect; inconclusive means small, poorly fitted or top-dose-only effect; inactive means no such curve, though single readings can be large or run the other way. Potency is read from the fitted curve at half-maximal effect.
SMILES,SARS PLP yeast,StopGo reporter,Marburg entry inh,Cruzain inh noDet,RE007 growth inh,Lassa entry inh,Cruzain inh Det,NS1 inh
CCOc1cc2c(cc1/C=C1/NC(=O)N(CC(=O)OC)C1=O)OCO2,3%,-30%,-11%[46.1 µM],/,-12%,-5%,/,/
Cc1nc(C)c(-c2ccc(SCC(=O)Nc3cccc(F)c3)nn2)s1,-2%,?,?,/,6%,?,/,5%
CCN1CCN(c2ncc3c(n2)CCN(Cc2cc(F)cc(F)c2)C3)CC1,/,-14%,/,-10%,/,-19%[46.1 µM],-2.2%,/
COc1ccc(C)cc1NC(=O)CSc1ncc2c(n1)-c1ccc(Cl)cc1N(Cc1ccccc1)S2(=O)=O,/,-13%,/,3.2µM*,/,8%[46.1 µM],-1.7%,/
COc1ccc(/C=C2\SC(=S)N(CCCC(=O)N3CCN(C)CC3)C2=O)cc1OC,/,18%,-3%[46.1 µM],/,8%,-2%[46.1 µM],/,/
COC(=O)c1cc(S(=O)(=O)NCc2ccc3c(c2)OCO3)cn1C,1%,32%[activator],15%[46.1 µM],/,2%,-4%[46.1 µM],/,1%
COc1cc(-c2nnn(CC(=O)NCc3ccccc3)n2)cc(OC)c1OC,-2%,?,?,26%,5%,?,-2.4%,/
CCc1noc(C)c1C(=O)N1CCCSC1=Nc1ccccc1C(C)C,2%,0%,-9%,/,3%,4%,/,/
Cn1ncc2c(Sc3ccc(Cl)cc3)ncnc21,1%,19%,5%[46.1 µM],/,-4%,2%[46.1 µM],/,-1%
CC(C)(C)NC(=O)c1cccc(NC(=O)c2cccc(O)c2)c1,2%,/,0%,-8%,-11%,7%,2.9%,7%
O=C(Nc1cccc(NC(=O)c2ccccc2[N+](=O)[O-])c1)c1ccccc1Cl,-2%,14%,/,/,0%,/,/,-12%
CC(C)CN(CCNC(=O)c1cn(C)c2ccc(S(=O)(=O)N3CCCC3)cc2c1=O)CC(C)C,-4%,-5%&-22%,1%&1%[46.1 µM],-12%,2%,13%[46.1 µM],-0.8%,2%
Cc1cccc(Nc2nc(N)nc(N)c2S(=O)(=O)c2ccccc2)c1,/,-11%,?,-28%,/,-22%[46.1 µM],-12%,/
Cc1ccc(C(=O)NC2CCCCCC2)cc1S(=O)(=O)N1CCOCC1,-2%,?,1%,/,8%,17%,/,-6%
CSc1cccc(NS(=O)(=O)c2ccc(F)cc2)c1,-3%,41%[activator],9%,-6%,-16%,24%,-2.7%,-53%
CCOC(=O)Cn1nc(C)c(NC(=O)CCc2ccccc2)c1C,0%,-19%,-3%,/,21%,6%,/,4%
Cc1ncsc1CCC(=O)N1CCCC(Nc2ccc(C(C)C)cc2)C1 (stereo not given),0%,-23%,?,/,5%,-16%,/,-13%
Cc1ccccc1C(=O)N1CCC(C(=O)Nc2ccc(S(=O)(=O)N(C)C(C)C)cc2)CC1,4%,?,-24%,?,-8%,-19%,1.9%,-5%
COc1ccccc1CNS(=O)(=O)c1c(C)nc2scc(C)n2c1=O,11%,-20%&4%,-1%[46.1 µM],-1%,-13%,1%[46.1 µM],-3.3%,7%
CCC(=O)Nc1cc(C)c(NC(=O)c2ccccc2OC)cn1,-4%,37%[activator],24%,4%,23%,16%,0.3%,-48%
CC1=C(C(=O)Nc2ccccc2)C(CC(C)C)n2nc(SCc3ccccc3C)nc2N1 (stereo not given),/,-6%,-13%[46.1 µM],1%,/,-1%[46.1 µM],-1.9%,/
CCc1noc(C)c1C(=O)N1CCN(S(=O)(=O)c2ccc(C)cc2C)CC1,0%,-9%,17%,/,1%,-1%,/,/
CCCCc1nn2c(=O)cc(COC(=O)c3cccc(NC(=O)c4cccc(Cl)c4)c3)nc2s1,/,-2%,/,-3%,/,22%[46.1 µM],0.1%,/
COc1ccc(N=Nc2cc(OC)c(N)cc2OC)cc1,/,10%,?,/,-26%,0%[46.1 µM],/,/
CC(=O)Nc1cccc(NC(=O)CSc2nc(=O)n(Cc3ccncc3)c3c2CCC3)c1,0%,5%,11%,/,0%,3%,/,/

# Additional compounds follow:
SMILES,SARS PLP yeast,StopGo reporter,Marburg entry inh,Cruzain inh noDet,RE007 growth inh,Lassa entry inh,Cruzain inh Det,NS1 inh
CC(=O)Nc1ccc(NC(=O)C(C)Sc2nnc(-c3ccc4c(c3)OCO4)o2)cc1 (stereo not given),0%,7%,?,/,9%,5%[46.1 µM],/,/
C=CCNC(=O)N[C@@H](CCSC)C(=O)OC,-4%,/,5%,6%,4%,25%,4.9%,-4%
CC(C)(C)c1ccc(C(=O)NCC(c2cccnc2)N2CCc3ccccc3C2)cc1 (stereo not given),/,?,/,-14%,/,1%[46.1 µM],1.8%,/
Cc1cccc(NC(=O)c2c(C)nc3ccccn23)c1,-3%,12%,?,6%,12%,?,-2.4%,-6%
Clc1ccc2sc(C3CCNCC3)nc2c1,0%,5%,?,/,9%,?,/,-3%
O=P(c1ccccc1)(c1ccccc1)C(O)c1ccncc1 (stereo not given),5%,/,8%,3%,1%,?,-1.1%,5%
CC(C)(C)c1ccc(/C=N/OCC(=O)NCc2ccc(F)cc2)cc1,30%,-23%,?,?,5%,?,-8.3%,29%
CCOc1cc(OCC)cc(C(=O)Nc2cccc(-c3nc4ccccc4[nH]3)c2)c1,/,?,/,14%,/,?,-3.4%,/
CCCCNC(=S)N=Nc1c(O)n(Cc2ccccc2)c2ccccc12,-3%,-22%,2%,-10%,-6%,-13%,-7.9%,13%
O=c1c2ccccc2nc(-c2ccco2)n1-c1nc2ccccc2s1,6%,-3%,?,3%,16%,-1%,-5.2%,17%
O=C(Nc1ccccc1C(F)(F)F)N1CCCCCC1,13%,-9%,2%,-21%,6%,4%,-2.7%,16%
NS(=O)(=O)c1ccc(CCNC(=O)c2cc(-c3cccs3)nc3ccccc23)cc1,3%,1%,7.9µM*,/,-11%,?,/,/
CCC1CN(C(=O)Nc2cccc3c2CCCC3)c2ccccc2O1 (stereo not given),/,?,/,16%,/,3%[46.1 µM],-0.3%,/
CCOc1ccccc1N1CCN(C(=O)c2ccc3nc(N)sc3c2)CC1,1%,1%,?,/,19%,?,/,/
Cc1ccc(NC(=O)Nc2ccon2)cc1,-7%,29%,/,/,-13%,/,/,-17%
O=C(O)c1cccc(Nc2ccc([N+](=O)[O-])cn2)c1,3%,14%,/,/,4%,/,/,6%
COc1ccccc1CC(=O)Nc1ccc(Cl)cc1C(=O)O,1%,-6%,15%[46.1 µM],/,-8%,11%,/,3%
COc1ccc(NC(=O)COC(=O)CCCOc2ccc(Cl)cc2Cl)cc1,-37%,-17%,?,2%,5%,?,-12%,-33%
CS(=O)(=O)NN1C(=O)c2ccccc2NC1c1ccccc1F (stereo not given),1%,-11%,/,/,-7%,/,/,5%
CC/C(C)=N\Nc1nc(-c2cc3cc(OC)ccc3oc2=O)cs1,-2%,-9%,?,/,0%,-25%[46.1 µM],/,12%
CCC/C(O)=N\S(=O)(=O)c1ccc(N=NN(C)C)cc1,?,-15%,5%[46.1 µM],2%,12%,?,-5.2%,8%
CC(C)CNC(=O)C(=O)NCC1CCCN1S(=O)(=O)c1cccs1 (stereo not given),-1%,-1%,4%,/,-17%,3%[46.1 µM],/,/
Cc1cc(C)cc(NCCC#N)c1,0%&-4%,-23%,5%&5%,-6%,-9%,?,-2.0%,0%&-1%
COc1ccc(S(=O)(=O)N2CCN(c3ccccn3)CC2)cc1OC,/,4%,11%,6%,-6%,-3%,5.7%,-14%
COc1ccc(Cl)cc1NC(=O)NN1CCN(C)CC1,-9%,-20%,/,/,3%,/,/,-65%

# Carrying on.
SMILES,SARS PLP yeast,StopGo reporter,Marburg entry inh,Cruzain inh noDet,RE007 growth inh,Lassa entry inh,Cruzain inh Det,NS1 inh
Cc1nn(Cc2cccc(C(=O)Nn3cc([N+](=O)[O-])cn3)c2)c(C)c1[N+](=O)[O-],-5%,5%,6%,-2%,/,2%,-5.4%,-10%
Cn1c(=O)n(C)c2cc(S(=O)(=O)NCC(=O)O)ccc21,0%,-11%,15%[46.1 µM],/,21%,1%,/,/
O=[N+]([O-])c1cc(F)cc(F)c1Nc1ccc(F)cc1,/,-20%,-18%[46.1 µM],/,1%,18%[46.1 µM],/,/
COc1ccc(-n2c(SCC(=O)Nc3nccs3)nc3c(c2=O)SC(C)C3)cc1 (stereo not given),12%,-22%,14%,-14%,-12%,-10%,-5.0%,-3%
CC1CCCCN1C(=O)/C=C/c1ccccc1[N+](=O)[O-] (stereo not given),-1%,6%,3%[46.1 µM],/,-5%,3%,/,-4%
Cc1sc(NC(=O)C2C3C=CC(C3)C2C(=O)O)c(C(N)=O)c1-c1ccc(C(C)C)cc1 (stereo not given),3%,-19%,?,1%,1%,0%,-9.1%,-14%
C/C(CS(=O)(=O)c1ccc(Cl)cc1)=N/NC(N)=S,0%,9%,-17%[46.1 µM],/,6%,?,/,/
Cc1cc(C)n(C(=O)CNC(=O)c2ccccc2Br)n1,-8%,19%,15%[46.1 µM],/,-12%,17%[46.1 µM],/,-7%
O=C1C2C3C=CC(C3)C2C(=O)N1/N=C/c1cn(Cc2ccc(F)cc2)c2ccccc12 (stereo not given),3%,0%,?,?,4%,?,-6.2%,?
CCCOc1ccc(Br)cc1/C=N/NC(=O)c1cc(OC)c(OC)c(OC)c1,-2%,-14%,?,9%,12%,-2%,-4.0%,9%
COc1ccc2ccc(=O)oc2c1CC=C(C)C,11%,4%&-11%,5%&5%&5%,4%&10%,16%,-16%,-10%&-5.2%,-8%
CS(=O)(=O)c1ccccc1-c1nc(-c2ccc(C(F)(F)F)cc2)no1,-5%,-22%,2%,?,-6%,-9%,-1.0%,-42%
CSc1nnc(-c2cccs2)n1-c1ccccc1,-4%,-12%,4%,-2%,8%,?,6.9%,1%[9.22 µM]
Cc1c(N=Nc2c(O)n(Cc3ccccc3)c(=O)[nH]c2=O)c(=O)n(-c2ccccc2)n1C,0%,-17%,?,-15%,1%,?,-8.1%,-16%
COCCCNC(=O)c1ccc2c(c1)OCO2,6%,24%,27%,-3%,5%,7%,7.5%,5%
Cc1ccc(NS(=O)(=O)c2cc(OCC(N)=O)c(C)cc2Cl)cc1C,-6%,12%,24%,-6%,12%,-11%,-1.9%,2%
CN(C)CCN(C(=O)COc1ccc(Cl)cc1)c1nc2cc3c(cc2s1)OCO3,0%,-1%,8%[46.1 µM],/,-4%,19%[46.1 µM],/,-11%

# Screening data from PubChem BioAssay.
